Source: PubChem BioAssay
Tgondii IFNg: T. gondii growth inhibition under IFN-gamma; Toxoplasma gondii growth in IFN-gamma-treated host cells; active compounds read low; reference of the scale not given here; activity change, negative = inhibition, %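 (about 20 µM by stock and volumes)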; hit rate 3.8% among 69,000;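 active means below -70%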;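 further: host cells are HeLa cells infected with Toxoplasma gondii; parasite growth read as luciferase light; one replicate is shown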
Numbers without * were called inactive; i = inactive; & = joins results of further samples. A portion of the library (hit frequency here may not be typical).

| Structure | Tgondii IFNg |
| --- | --- |
| CCCCc1ncc(-c2nccn2C(C)c2nccs2)[nH]1 (stereo not drawn) | 60.4 |
| O=C(c1cc2cc(F)ccc2[nH]1)N1CCC(c2cc3ncccc3[nH]2)CC1 | -22.6 |
| C[C@@H]1CN([C@H](C)CO)C(=O)c2cccc(NC(=O)c3nc4ccccc4s3)c2O[C@H]1CN(C)C(=O)Nc1ccc2c(c1)OCO2 | 3.8 |
| CN(Cc1nc2ccccc2n1C)C(=O)c1ccc(-c2ncn[nH]2)cc1 | 8.3 |
| CCN1CCCC1CNC(=O)Cn1cccc1-c1nc(-c2ccccc2)cs1 (stereo not drawn) | 7.2 |
| CCOc1cccc(C2c3[nH]c4ccccc4c3CCN2C(=O)CCc2ccccc2)c1 (stereo not drawn) | i |
| Cc1cc(C(=O)NCC2CC(=O)N(C3CCCC3)C2)n[nH]1 (stereo not drawn) | 0.1 |
| CC[C@@H]1C/C=C\CCNC(=O)C[C@H](c2ccccc2)C(=O)N1 | 2.1 |
| COc1ccc(C(=O)Nc2cc3c(C)cc(=O)oc3cc2C)o1 | -4.8 |
| CCOc1ccccc1-c1nc(Cn2nnc(C(=O)Nc3cc(C)cc(C)c3)c2C)c(C)o1 | 56.1 |
| O=C(CCc1ccco1)N1CCc2onc(-c3ccc(C(F)(F)F)cc3)c2C1 | 9.6 |
| Nc1c2c(=O)[nH]c(-c3ccccc3)nc2nn1-c1ccccc1 | -1.1 |
| Cc1cc(C)cc(NC(=O)N2CCC3(CC2)Nc2cc(C)ccc2-n2cccc23)c1 | -107.6* |
| CC(C)CCNC(=O)C1(CC2CC(c3ccccc3)=NO2)CCN(C(=O)C(C)C)CC1 (stereo not drawn) | 9.5 |
| CCC(=O)N1C[C@H](C)[C@@H](OC)CN(C)C(=O)c2cc(NC(=O)Nc3ccc(Cl)cc3)ccc2OC[C@H]1C | 190.0 |
| CN(CCCC1CCCO1)Cc1ncc[nH]1 (stereo not drawn) | -1.6 |

Among those listed so far, these have fluorine.
| Structure | Tgondii IFNg |
| --- | --- |
| O=C(c1cc2cc(F)ccc2[nH]1)N1CCC(c2cc3ncccc3[nH]2)CC1 | -22.6 |
| O=C(CCc1ccco1)N1CCc2onc(-c3ccc(C(F)(F)F)cc3)c2C1 | 9.6 |

Next section.
| Structure | Tgondii IFNg |
| --- | --- |
| COc1ccc(C(=O)N2CCC3(CC2)Nc2ccc(Cl)cc2-n2cccc23)cc1OC | 39.9 |
| Cc1oc(C2CCN(C(=O)c3cccnc3Cl)CC2)nc1C(=O)N1CCOCC1 | -26.4 |
| Cc1cc(C)cc(NC(=O)CN2CCC3(CC2)N=C(c2cccc(C)c2)C(=O)N3)c1 | -34.2 |
| CCn1ccc(C(=O)N2CCC(CC(=O)NC(C)c3ccccc3)CC2)n1 (stereo not drawn) | 3.5 |
| O=C(Nc1cccc(-c2cc3ccccc3[nH]2)c1)C1CCCN1Cc1ncc[nH]1 (stereo not drawn) | 1.2 |
| CCC(=O)Nc1cccc(OCC(=O)N2C[C@H]3CC[C@H]2C3)c1 | -5.7 |
| CN(C)C(=O)c1c2c(NCc3cccnc3)ncnc2n2ccccc12 | -3.1 |
| CNc1ncc(C(=O)N2CCCC(C(=O)c3ccc(Cl)cc3C)C2)cn1 (stereo not drawn) | 9.3 |

Among those listed so far, these have a halogen:
| Structure | Tgondii IFNg |
| --- | --- |
| O=C(c1cc2cc(F)ccc2[nH]1)N1CCC(c2cc3ncccc3[nH]2)CC1 | -22.6 |
| O=C(CCc1ccco1)N1CCc2onc(-c3ccc(C(F)(F)F)cc3)c2C1 | 9.6 |
| CCC(=O)N1C[C@H](C)[C@@H](OC)CN(C)C(=O)c2cc(NC(=O)Nc3ccc(Cl)cc3)ccc2OC[C@H]1C | 190.0 |
| COc1ccc(C(=O)N2CCC3(CC2)Nc2ccc(Cl)cc2-n2cccc23)cc1OC | 39.9 |
| Cc1oc(C2CCN(C(=O)c3cccnc3Cl)CC2)nc1C(=O)N1CCOCC1 | -26.4 |
| CNc1ncc(C(=O)N2CCCC(C(=O)c3ccc(Cl)cc3C)C2)cn1 (stereo not drawn) | 9.3 |

Next results
| Structure | Tgondii IFNg |
| --- | --- |
| COC(=O)c1sc(-c2cccs2)cc1NS(=O)(=O)c1ccsc1C(=O)OC | -85.4* |
| O=c1[nH]c(CN2CCCC3(CCCCC3)C2)nc2c1C1(CCCCC1)Cc1ccccc1-2 | -80.7* |
| Cc1noc(C)c1S(=O)(=O)Nc1ccc(Oc2c(Cl)cccc2Cl)nc1 | -0.6 |
| CS(=O)(=O)N(Cc1ccco1)CC(O)Cn1c2ccccc2c2ccccc21 (stereo not drawn) | 4.0 |
| CCCN(Cc1cccc(Cl)c1)C(=O)[C@@H](N)[C@@H](C)CC | -63.2 |
| Cc1noc(C)c1C(=O)NCc1ccc(-c2csnn2)cc1 | 17.9 |
| Cn1cnnc1Sc1cc(C#N)c(C#N)cc1Sc1nncn1C | -41.4 |
| COc1ccccc1CNC(=O)C[C@H]1CC[C@@H]2[C@H](COC[C@H](O)CN2Cc2ccc3c(c2)OCO3)O1 | 6.0 |
| CCc1cnc(C)nc1N1CCN(Cc2ccc3c(c2)OCO3)C(=O)C1 | -85.2* |
| FC(F)(F)c1cccc(CCC2CCCN(Cc3ccncc3)C2)c1 (stereo not drawn) | -44.8 |
| O=C(NCc1csc(C2CCN(C(=O)c3cc(F)ccc3F)CC2)n1)C1CC1 | -27.9 |
| COC(=O)c1cc2n(n1)CCCN(C1CCN(C(=O)c3ccccc3)CC1)C2 | 0.0 |
| CCOCc1cncc2c1CCN(S(=O)(=O)c1cn(C)cn1)C2 | -0.9 |
| O[C@@H]1C[C@H]2CN(CCOc3ccc(Cl)cc3)C[C@H]2C[C@@H]1O | -4.3 |
| CNC(=O)[C@@H]1C[C@@H](N)CN1C(=O)c1ccc2c(c1)CCO2 | 5.9 |
| O=C(NCc1ccc(N2CCCCC2)cc1)c1cn2c(n1)CSCC2 | 118.7 |
| C[C@H](CO)N1C[C@H](C)[C@H](CN(C)C(=O)Nc2cccc3ccccc23)OCCCC[C@H](C)Oc2ccc(NC(=O)CCC(F)(F)F)cc2C1=O | 183.7 |
| COCCN1C(=O)CCC2C1CCN2C(=O)Cc1ccc(OC)cc1 (stereo not drawn) | 5.0 |
| Cc1ccc(C2=NC3(CCN(CC(=O)Nc4ccc(C)c(F)c4)CC3)NC2=O)cc1C | 4.2 |
| COc1ccccc1CCCNc1nc(C)nc2c1cnn2C | 22.7 |
| Cc1ccc(-c2coc(-c3ccc(NC(=O)Nc4cc(F)ccc4F)cc3)n2)cc1 | 38.0 |
| CC(Cc1cccnc1)n1ccnc1-c1cccnc1 (stereo not drawn) | 14.9 |
| Cc1ccc(F)cc1NC(=O)c1nnn(Cc2nc(-c3ccc(Cl)cc3)oc2C)c1C | 68.8 |
| Cn1ncc2c(N3CCN(C(=O)N4CCOCC4)CC3)nc(C(C)(C)C)nc21 | -3.3 |
| COCCOCC(=O)N1CCOC(c2ccc(Cl)c(Cl)c2)C1 (stereo not drawn) | -0.3 |
| CCS(=O)(=O)N1CC2(C1)[C@H](c1ccccc1)[C@@H](CO)N2Cc1ccc(F)cc1 | 0.1 |
| c1ccc(Cc2nc(CCc3cccnc3)n[nH]2)cc1 | 4.5 |
| COc1ccc(-c2nn(-c3ccccc3)cc2C(=O)Nc2ccc(F)cc2)cc1 | -51.4 |
| CC(=O)c1c(C)nn(C(C)CC(=O)N2C[C@H]3C[C@H](O)[C@@H](O)C[C@H]3C2)c1C (stereo partly drawn) | 10.5 |
| Cc1cc(C)c(S(=O)(=O)NCCc2sc(-c3ccc(F)cc3)nc2C)c(C)c1 | 32.6 |
| Cc1ccc(CSCC(=O)NCCCN2CCOCC2)cc1 | -16.0 |
| Cc1cccc(C2c3[nH]c4ccccc4c3CCN2C(=O)c2nonc2C)n1 (stereo not drawn) | -19.5 |
| CN1C(=O)CCCC12CCCN(C(=O)c1ccc3ccccc3n1)C2 (stereo not drawn) | 6.9 |
| COc1ccc(CNC(=O)C2CC(=O)N=C(N)S2)cc1 (stereo not drawn) | 31.2 |
| CO[C@H]1CN(C)C(=O)c2ccc(NS(=O)(=O)c3ccc(C)cc3)cc2OC[C@H](C)N(C)C[C@H]1C | -15.2 |
| CCc1cc(=O)[nH]c(C2CCCN2C(=O)c2cc(CC)on2)n1 (stereo not drawn) | 88.7 |
| CC1CC1C(=O)N1CCC2(CCCN(CC3CCOCC3)C2=O)CC1 (stereo not drawn) | 56.9 |
| CC(C)C(=O)c1ccc2nnc(C3CN(C)CCN3C)n2c1 (stereo not drawn) | -2.5 |
| O=C(OCCN1CCOCC1)c1cccs1 | 14.0 |
| Cc1noc(C)c1NC(=O)Nc1ccc2c(c1)C(=O)N([C@@H](C)CO)C[C@H](C)[C@@H](CN(C)S(=O)(=O)c1cccs1)OCCCC[C@H](C)O2 | -24.8 |
| Cn1ccc2cc(S(=O)(=O)N3CCC(C(=O)N4CCN(c5ccccn5)CC4)CC3)ccc21 | 49.7 |
| Cc1cc(C)c2c(=O)[nH]c(SCC(=O)NCc3ccccc3)nc2n1 | 37.2 |
| CC(C)C(C(=O)O)N1C(=O)CSC1=S (stereo not drawn) | 6.3 |
| CCCNC(=O)Nc1ccc2c(c1)OC[C@H](C)N(S(C)(=O)=O)C[C@@H](C)[C@@H](OC)CN(C)C2=O | -34.9 |
| O=S(=O)(c1ccccc1)N(CC(F)(F)F)c1ccc(C(O)(C(F)(F)F)C(F)(F)F)cc1 | -60.5&23.2 |
| C[C@H](CO)N1C[C@H](C)[C@@H](CN(C)S(=O)(=O)c2cn(C)cn2)Oc2ccc(NC(=O)C3CC3)cc2CC1=O | 19.6 |
| Cc1noc(C)c1C1CCCN1C(=O)Cn1nc(C(F)(F)F)c2c1CCCC2 (stereo not drawn) | -2.8 |
| COCC(=O)Nc1ccc2c(c1)OC[C@@H](C)N(C)C[C@@H](C)[C@@H](OC)CN(C)C2=O | -18.6 |
| COc1ccc2c3c([nH]c2c1)[C@H](CO)N(Cc1ccccc1)CC31CCN(C(=O)NC(C)C)CC1 | 4.8 |
| COc1ccc(OC)c(CNCc2cc(-c3ccccc3)cn3nnnc23)c1 | -50.4 |
| Cc1ccc(CS(=O)(=O)N2CCC3(CC(=O)N(c4cccc(C)c4)C3)C2)cc1 (stereo not drawn) | -12.8 |
| O=C(Nc1ccc(-c2nc(-c3ccccc3)co2)cc1)Nc1cc(F)ccc1F | 46.6 |
| S=C(NC1CCCCC1)C(=S)NC1CCCCC1 | -60.7 |
| CCOc1ccc(-c2cc3c(=O)n(Cc4nc(-c5ccc(OC)cc5OC)oc4C)ccn3n2)cc1 | -15.3 |
| CSc1ccc(-c2ccc(C(=O)O)c(Cl)n2)cc1 | 11.2 |
| Cc1sc(NC(C)(C)C)nc1-c1ccc2c(c1)CCN2S(=O)(=O)c1ccccc1 | 50.6 |

Following part
| Structure | Tgondii IFNg |
| --- | --- |
| Cc1noc(C)c1S(=O)(=O)Nc1ccc2c(c1)C(=O)N([C@@H](C)CO)C[C@@H](C)[C@H](CN(C)Cc1ccc(C(=O)O)cc1)OCCCC[C@H](C)O2 | 56.4 |
| O=C(O)c1ccc(Nc2nc(-c3ccccc3)c3cc(Cl)ccc3n2)cc1 | -30.1 |
| CN(C)C(=O)N1CCC2(CC1)CC(N(C)Cc1ccco1)CO2 (stereo not drawn) | 4.4 |
| O=c1[nH]c2ccc(S(=O)(=O)N3CCC(c4ccccc4)C3)cc2[nH]1 (stereo not drawn) | 23.3 |
| COc1cccc2ccc(-c3ccc(C(=O)N(C)C)cc3)nc12 | -3.3 |
| C[C@@H]1CCCCO[C@@H](CN(C)C(=O)NC2CCCCC2)[C@H](C)CN([C@H](C)CO)C(=O)c2cc(N(C)C)ccc2O1 | 278.2 |
| CN(C)C1CCN(C(=O)c2cc(-c3csc(-c4cccc(Cl)c4)n3)n3ccccc23)C1 (stereo not drawn) | -35.5 |
| CN1[C@H]2CC[C@@H]1CN(C(=O)c1ccc(-n3cnnc3)cc1)CC2 | 2.5 |
| Cc1nc(-c2ccc(S(C)(=O)=O)cc2)cc(C2CCNCC2)n1 | 0.9 |
| Cc1ccc(-c2nc(CCNC(=O)c3cc(C)cc(C)c3)cs2)cc1 | 433.9 |
| C=CCN(CC#Cc1ccccc1)C(=O)c1ccc(C2CCCN2)s1 (stereo not drawn) | -2.0 |
| CN1CCC2(CC1)CN(Cc1ccnn1-c1ccccc1)CCCN2C | -0.9 |
| CCOc1ccccc1CNC(=O)c1nc(-c2cccc(F)c2)n2c1CCCCC2 | -84.4* |
| COc1ccc(NC(=O)CN2CCC3(CC2)N=C(c2cccc(F)c2)C(=O)N3)cc1OC | 11.8 |
| COc1ccc(C2C3CSc4ccccc4C3=NN2c2ccccc2)cc1 (stereo not drawn) | -32.7 |
| CC(=O)Nc1ccc(CN2CCc3c([nH]c4ccccc34)C2c2ccccc2C)s1 (stereo not drawn) | 11.0 |
| COC(=O)Cn1cc(CN2CCCC2c2cc(C(C)C)no2)c2cc(OC)ccc21 (stereo not drawn) | 1.4 |
| CC(C)Cc1cc(CNc2nc(-c3cccnc3)nc3c2CNC3)no1 | 5.5 |
| Cc1nnsc1CN(C)C(=O)c1cc(-c2cccn2C)n[nH]1 | 30.3 |
| CC(=O)Nc1ccc(NS(=O)(=O)c2ccc3[nH]c(=O)ccc3c2)cc1 | -8.1 |
| Cn1cc(C(=O)C2CCN(C(=O)c3ccc(-c4ccccc4C(F)(F)F)o3)CC2)c(N)n1 | 0.3 |
| COCCn1c(C)cc2cc(NC(=O)c3ccccc3Cn3ccnc3)ccc21 | 0.8 |
| COc1ccccc1NC(=O)Nc1ccc(-c2nc(-c3ccc(C)cc3C)co2)cc1 | -16.7 |
| O=S(=O)(NCc1ccccc1)Nc1cc2c(cc1-n1ccnc1)OCCO2 | 3.2 |
| CCOC(=O)c1noc2nc(C)n(Cc3nc(-c4ccccc4OCC)oc3C)c(=O)c12 | -8.9 |
| O=C(Cc1ccccn1)N1CC(=O)N2[C@@H](CO)[C@H](c3ccc(C#CCC4CCCC4)cc3)[C@@H]2C1 | -49.7 |
| COc1ccc(-c2c(C)nn3cc(C(=O)c4ccccc4O)cnc23)cc1 | 5.9 |
| O=C(c1cc2cccnc2n(Cc2ccccc2)c1=O)N(Cc1ccccc1)c1ccccc1 | -64.8 |
| O=C(Nc1ccc(-c2nc(-c3ccccc3)co2)cc1)c1ccc(F)cc1 | -28.2 |
| COC(=O)[C@@H]1C[C@H](NS(=O)(=O)CCc2ccncc2)CN1C | 8.9 |
